Source: PubChem BioAssay (National Center for Advancing Translational Sciences (NCATS))
nsP2pro primary – blocks chikungunya virus nsP2 protease peptide cleavage | Q8JUX6 | FRET peptide cleavage, nsP2pro, fluorescence 1 h | Potency, µM (doses to about 24.9 µM), inactives show at the highest dose activity change, negative = inhibition, usual class: inhibitors | hit rate 1.1% among 31,000 | AID 1964107; active means well fitted inhibition curve with a large enough effect; inconclusive means small, poorly fitted or top-dose-only effect; inactive means no such curve, though single readings can be large or run the other way; also: nearly all actives have a fitted effect of over 60% in size; a reference inhibitor and vehicle were the controls
Target sequence (Q8JUX6 whole entry, looked up): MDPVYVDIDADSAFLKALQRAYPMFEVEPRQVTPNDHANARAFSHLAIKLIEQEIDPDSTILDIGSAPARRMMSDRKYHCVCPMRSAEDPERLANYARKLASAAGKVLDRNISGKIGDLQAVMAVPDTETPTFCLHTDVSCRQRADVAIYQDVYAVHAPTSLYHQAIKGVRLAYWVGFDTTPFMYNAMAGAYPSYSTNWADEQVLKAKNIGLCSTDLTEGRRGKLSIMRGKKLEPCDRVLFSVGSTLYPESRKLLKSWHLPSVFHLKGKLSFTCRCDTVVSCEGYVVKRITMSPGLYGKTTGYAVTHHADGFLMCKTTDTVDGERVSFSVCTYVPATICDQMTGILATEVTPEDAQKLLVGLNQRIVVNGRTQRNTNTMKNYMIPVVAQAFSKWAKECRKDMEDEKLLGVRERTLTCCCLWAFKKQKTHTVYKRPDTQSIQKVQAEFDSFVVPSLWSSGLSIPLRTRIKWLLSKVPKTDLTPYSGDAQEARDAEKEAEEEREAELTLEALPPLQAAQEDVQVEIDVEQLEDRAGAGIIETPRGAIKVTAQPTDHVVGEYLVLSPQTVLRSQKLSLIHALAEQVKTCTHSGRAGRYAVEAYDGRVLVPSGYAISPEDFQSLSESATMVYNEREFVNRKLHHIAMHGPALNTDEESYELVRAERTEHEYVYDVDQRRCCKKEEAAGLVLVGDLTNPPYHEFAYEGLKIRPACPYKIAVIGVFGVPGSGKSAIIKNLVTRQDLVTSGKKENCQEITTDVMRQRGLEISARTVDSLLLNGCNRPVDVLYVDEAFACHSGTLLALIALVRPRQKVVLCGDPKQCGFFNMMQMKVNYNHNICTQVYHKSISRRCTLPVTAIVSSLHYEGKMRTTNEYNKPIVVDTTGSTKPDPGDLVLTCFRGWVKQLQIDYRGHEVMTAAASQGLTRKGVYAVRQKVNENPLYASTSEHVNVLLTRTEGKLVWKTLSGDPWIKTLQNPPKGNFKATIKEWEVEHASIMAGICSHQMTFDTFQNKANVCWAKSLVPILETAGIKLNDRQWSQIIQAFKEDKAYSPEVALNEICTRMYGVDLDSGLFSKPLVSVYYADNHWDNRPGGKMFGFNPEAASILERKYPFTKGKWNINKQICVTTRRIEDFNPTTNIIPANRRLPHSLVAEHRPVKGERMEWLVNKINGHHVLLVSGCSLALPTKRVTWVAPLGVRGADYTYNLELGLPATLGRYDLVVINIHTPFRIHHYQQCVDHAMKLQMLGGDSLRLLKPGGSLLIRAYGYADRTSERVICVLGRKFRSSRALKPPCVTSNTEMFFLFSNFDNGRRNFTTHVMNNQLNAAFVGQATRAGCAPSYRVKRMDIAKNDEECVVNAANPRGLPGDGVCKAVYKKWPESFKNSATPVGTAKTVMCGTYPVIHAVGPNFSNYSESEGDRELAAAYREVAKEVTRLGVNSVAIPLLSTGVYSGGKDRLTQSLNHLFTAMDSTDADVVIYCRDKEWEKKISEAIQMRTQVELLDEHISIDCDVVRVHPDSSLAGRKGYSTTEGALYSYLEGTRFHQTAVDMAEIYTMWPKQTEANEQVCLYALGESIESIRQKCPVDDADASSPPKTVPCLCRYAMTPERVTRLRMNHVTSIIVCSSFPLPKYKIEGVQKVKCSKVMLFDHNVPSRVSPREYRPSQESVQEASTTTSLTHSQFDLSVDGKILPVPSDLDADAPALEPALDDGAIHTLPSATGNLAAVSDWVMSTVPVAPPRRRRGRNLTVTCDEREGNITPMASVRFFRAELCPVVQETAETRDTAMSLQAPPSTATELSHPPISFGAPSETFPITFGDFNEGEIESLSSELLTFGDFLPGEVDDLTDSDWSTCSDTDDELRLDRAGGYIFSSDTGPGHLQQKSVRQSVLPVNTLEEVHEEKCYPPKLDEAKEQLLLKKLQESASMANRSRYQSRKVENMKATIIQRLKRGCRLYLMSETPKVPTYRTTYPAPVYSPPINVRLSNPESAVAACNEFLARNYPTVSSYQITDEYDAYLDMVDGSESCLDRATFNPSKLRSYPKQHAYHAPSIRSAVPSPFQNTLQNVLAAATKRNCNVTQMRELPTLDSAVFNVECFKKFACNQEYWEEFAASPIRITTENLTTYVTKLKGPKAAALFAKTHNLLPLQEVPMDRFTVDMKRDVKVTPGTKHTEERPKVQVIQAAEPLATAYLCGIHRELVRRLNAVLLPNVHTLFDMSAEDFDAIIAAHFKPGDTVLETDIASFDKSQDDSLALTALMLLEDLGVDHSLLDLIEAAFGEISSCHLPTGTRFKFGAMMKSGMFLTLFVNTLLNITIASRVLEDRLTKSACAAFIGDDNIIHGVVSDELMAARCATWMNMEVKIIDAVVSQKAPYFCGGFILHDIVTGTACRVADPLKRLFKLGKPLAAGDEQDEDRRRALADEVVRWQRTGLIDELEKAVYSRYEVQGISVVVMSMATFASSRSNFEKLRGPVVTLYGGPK
Active calls of the source: *; i = inactive; ? = inconclusive; & = joins results of further samples; [ ] = remark or other dose. % is scaled to controls: 0 for no effect and ±100 for the full control effect; potency is read from the fitted curve at half-maximal effect. Only part of the results is shown, so the mix of outcomes need not match the whole.

structure | nsP2pro primary
C=C1CC[C@]2(C(=O)O[C@@H]3O[C@H](CO)[C@@H](O)[C@H](O)[C@H]3O)CC[C@]3(C)C(=CCC4[C@@]5(C)C[C@H](O)[C@@H](O[C@@H]6O[C@H](C(=O)O)[C@@H](O)[C@H](O)[C@H]6O)[C@](C)(C=O)C5CC[C@]43C)C2C1 (some centres not stated) | 0%[5.1 µM]
Cc1ccccc1CN1CCC(CN(Cc2cccnc2)C(=O)Cc2ccccc2)CC1 | i
O=C1Nc2cc(Cl)ccc2/C1=C\c1cc(Cl)c(O)c(Cl)c1 | i
COc1cc(Cl)c(NC(=O)c2cc(CN3CCCC3)on2)c(OC)c1 | ?
CC1CCN(C(=O)CSc2c3c(nc4cc(Cl)ccc24)CCCC3)CC1 | -15%
CC(=O)N1CCc2c(sc3c2c(=O)n(Cc2ccccc2)c(=O)n3Cc2ccccc2F)C1 | ?
Cc1cc(C(=O)Cn2cc(C#N)ccc2=O)c(C)n1Cc1ccccc1 | ?
CC(=O)N1c2ccc(S(=O)(=O)NCCC(=O)Nc3ccc(C)cc3Br)cc2CC1C (configuration not stated) | ?
Cc1ccsc1C(=O)C1CCCN(Cc2ccc(OC(C)C)c(CO)c2)C1 (configuration not stated) | i
COc1ccc(S(=O)(=O)Nc2cc(OC)cc3cccnc23)cc1 | i
O=C(Nc1ccccc1)c1ccc(Cl)c(S(=O)(=O)Nc2ccccc2)c1 | -9%
CC(Cc1cnccn1)Nc1cnc2c(O)ccc(C(=O)O)c2c1 (configuration not stated) | i
NC(=O)C1CCCN1C(=O)C(Cc1cnc[nH]1)NC(=O)C1CCC(=O)N1 (configuration not stated) | -3%
O=C(c1cc(CC2(NCc3ccccc3F)COC2)no1)N1CCCCC1 | -2%[39.2 µM]
CCOC(=O)c1c(C)nn(-c2cccc([N+](=O)[O-])c2)c1C | 8%

Fetched by structure from the list above (3):
structure | nsP2pro primary
CC(=O)N1c2ccc(S(=O)(=O)NCCC(=O)Nc3ccc(C)cc3Br)cc2CC1C (configuration not stated) | ?
CC(Cc1cnccn1)Nc1cnc2c(O)ccc(C(=O)O)c2c1 (configuration not stated) | i
O=C(c1cc(CC2(NCc3ccccc3F)COC2)no1)N1CCCCC1 | -2%[39.2 µM]

Other records follow:
structure | nsP2pro primary
CCCSc1oc(-c2cccs2)nc1S(=O)(=O)c1ccc(Cl)cc1 | ?
C/C=C(\C)C(=O)OC[C@H]1O[C@@H](O[C@H]2[C@@H](O[C@H]3O[C@H](COC(=O)/C(C)=C/C)[C@@H](O)[C@H](O)[C@H]3O[C@@H]3O[C@H](COC(=O)/C(C)=C/C)[C@@H](O)[C@H](OC(=O)/C(C)=C/C)[C@H]3O)O[C@H](COC(=O)/C(C)=C/C)[C@@H](O)[C@@H]2O)[C@H](O)[C@@H](O)[C@@H]1O | -4%[5.1 µM]
O=C(Nc1ccccc1F)C(Cc1ccccc1)N1Cc2ccccc2C1=O (configuration not stated) | -11%
COc1ccc(-n2ncc(C(=O)Nc3ccc4c(c3)OCO4)c2C2CCN(C(=O)OC(C)(C)C)CC2)cc1 | -16%
F[C@@H]1CN(Cc2nccs2)C[C@@H]1OCc1nc2ccccc2o1 | -2%[39.2 µM]
COc1cccc(CC(=O)N2CCCC3(C2)NC(=O)N(Cc2cccc(Cl)c2)C3=O)c1 (configuration not stated) | 1%
COc1ccccc1CCNC(=O)c1cccn1-c1nnc(N2CCCC2)s1 | -5%
CC(COc1ccccc1)N(CCCl)Cc1ccccc1 (configuration not stated) | 2%
CCOc1ccccc1NC(=O)c1sc(-n2nc(C)c(CCC(C)C)c2C)nc1C | -13%
CC1(C)C[C@@H]2C[C@@](C)(CN2S(=O)(=O)c2ccc(C(=O)Nc3ccc(Cl)c(S(=O)(=O)N4CCOCC4)c3)cc2)C1 | -18%
C=C1CCC2[C@@](C)(C=O)CCC[C@]2(C)[C@H]1CC/C(C)=C/CO (some centres not stated) | 70%[activator]
COCC1CN(C(=O)Cn2c(=O)oc3ccccc32)CC12CCNCC2 (configuration not stated) | -7%
CCC(Oc1ccccc1)C(=O)Nc1nnc(S(=O)(=O)N2CCCC2)s1 (configuration not stated) | -13%
Cc1cc2c(s1)c1cnn(Cc3ccc(F)cc3Cl)c(=O)c1n2C | -11%
CCSc1ncc(Cl)c(C(=O)Nc2ccc(S(=O)(=O)N3CCC(C)CC3)cc2)n1 | -16%

Another view of part of the listing above.
C=C1CCC2[C@@](C)(C=O)CCC[C@]2(C)[C@H]1CC/C(C)=C/CO (some centres not stated)
  nsP2pro primary: 70%[activator]

COCC1CN(C(=O)Cn2c(=O)oc3ccccc32)CC12CCNCC2 (configuration not stated)
  nsP2pro primary: -7%

CCC(Oc1ccccc1)C(=O)Nc1nnc(S(=O)(=O)N2CCCC2)s1 (configuration not stated)
  nsP2pro primary: -13%

Cc1cc2c(s1)c1cnn(Cc3ccc(F)cc3Cl)c(=O)c1n2C
  nsP2pro primary: -11%

Additional structures
structure | nsP2pro primary
CC[C@H]1/C=C\C=C/C[C@@H](C)[C@H](O)[C@@](C)(O)C(=O)[C@@H](C)[C@H](O)[C@@H](C)C(=O)[C@@H](C)[C@H](O)[C@@H](C)/C=C\C(=O)O[C@@H]2[C@H](C)[C@H](CC1)O[C@]1(CC[C@H](C)[C@H](C[C@@H](C)O)O1)[C@H]2C | ?
CC1=CC(O)CC(C)(C)C1/C=C/C(C)=C/C=C/C(C)=C/C=C/C=C(C)/C=C/C=C(C)/C=C/C1=C(C)CC(O)CC1(C)C (configuration not stated) | -26%
Cn1cc(CN2CCN(C(c3ccccc3)c3ccccc3)CC2)cc1C#N | 1%
O=C(Nc1ccc2nn(-c3ccc(F)cc3)nc2c1)c1cccc2c(Cl)cccc12 | -10%
CCC(=O)N1CCc2cc(S(=O)(=O)NC(C(=O)Nc3cc(OC)cc(OC)c3)C(C)C)ccc21 (configuration not stated) | -17%
CC1(C)CC[C@]2(C(=O)O)CC[C@]3(C)C(=CCC4[C@@]5(C)C[C@@H](O)[C@H](O)[C@@](C)(CO)C5[C@H](O)C[C@]43C)[C@@H]2C1 (some centres not stated) | -15%[10 µM]
Cn1c(=NC(=O)c2ccc(F)cc2)sc2cc(Br)ccc21 | -8%
CCOc1ccccc1CNC(=O)CN1C(=O)CSc2ccc(S(=O)(=O)N3CCOCC3)cc21 | -14%
COC[C@]12CN(C)C3C4[C@H](OC)[C@H]1C3(C(OC)C[C@H]2O)[C@H]1C[C@@]2(O)[C@H](OC(=O)c3ccccc3)[C@@H]1[C@]4(O)[C@@H](O)[C@@H]2OC (some centres not stated) | 15%
COCC(=O)Nc1ccc(-c2noc([C@@H]3CCCN3Cc3ncc[nH]3)n2)cn1 | i
CC(CNC1CCCCC1)OC(=O)c1ccccc1 (configuration not stated) | 2%
CCOc1ccccc1C(=O)NC1(C(F)(F)F)C(=O)Nc2c1c(=O)[nH]c(=O)n2-c1ccc(F)cc1 (configuration not stated) | -20%
Cc1cc2nnc(SCC(=O)Nc3ccc(F)c(Cl)c3)n2c2ccccc12 | 0%
CC(C)CC(OC(=O)CNC(=O)c1ccccc1)C(=O)Nc1cc(C(F)(F)F)ccc1Cl (configuration not stated) | -2%
COc1ccc(Nc2ccc3c(n2)CN(Cc2ccccc2F)C(=O)CO3)cc1 | -2%[39.2 µM]

Continued:
structure | nsP2pro primary
Cc1ccc(NC(=O)[C@@H]2OCC(=O)N(C)[C@H]2c2ccccc2)cc1 | -16%
CN[C@H](C(=O)N[C@H](C(=O)N(C)[C@H](/C=C(\C)C(=O)O)C(C)C)C(C)(C)C)C(C)(C)c1ccccc1 | -5%
Cc1ccc(C2N=C(Nc3nc4ccccc4o3)NC3=C2C(=O)CCC3)cc1 (configuration not stated) | i
O=C(Nc1ccc2ncnc(N3CCCC3)c2c1)c1ccc(Cl)s1 | i
COc1ccc(N2CC3CCC(C2)N3CC2CCCC2)cc1 | -15%[39.2 µM]
C[C@@H]1C(=O)O[C@H](C)[C@H]1C[C@@H](O)[C@](C)(O)[C@H]1CC[C@@]2(O)C3=CC(=O)[C@@H]4C[C@@H](O)[C@@H](O)C[C@]4(C)C3CC[C@]12C (some centres not stated) | 6%[10 µM]
O=C1NCCCCCN(S(=O)(=O)c2ccc3c(c2)OCCO3)[C@H]2CCC[C@@H]12 | i
CC(C)CNCc1ccc(-c2ccccc2S(=O)(=O)N2CCCC2)cc1 | ?
CCOc1ccc(CNC(=O)CSc2nnc(C)c3c(C)n(-c4ccc(Cl)cc4)nc23)cc1 | -9%
Cc1ccc(S(=O)(=O)Nc2ccccc2C(=O)Nc2nc(-c3ccccc3)c(C)s2)cc1 | i
Cc1cccc(OCCn2c(SCC(N)=O)nc3ccccc32)c1 | -13%
COc1ccc(OC)c(CNC(=O)CCS(=O)(=O)c2ccc3c(c2)oc(=O)n3C)c1 | ?
CC(C)C1CN(C(=O)CNC(=O)N(C)C)CCCN1Cc1ccc(F)cc1 (configuration not stated) | i
CCOC(=O)c1cccc(NC(=O)NCc2ccc3c(c2)CCN3C(=O)CC)c1 | -23%
Cc1cc(C)c(Cn2c3ccccc3c3cnn(CC(=O)NCc4cccs4)c(=O)c32)c(C)c1 | -14%

The results go on.
structure | nsP2pro primary
Cc1ccc(CSc2nc3ccc(NC(=O)COc4ccccc4F)cc3s2)cc1 | -23%
CCCCCCN(CCC(=O)NCCc1ccccc1)C(=O)c1cc(C)oc1C | -19%
c1cc(-c2nc(C3CCOC3)nn2C2CCCCC2)co1 (configuration not stated) | -1%
Cn1c(=O)c2ccccc2n2c(CCC(=O)N3CCN(c4cccc(Cl)c4)CC3)nnc12 | -12%
Cc1c(Cl)cccc1-n1c(CCC(=O)O)ccc1-c1cccs1 | ?
CCCn1c(-c2ccc(F)cc2)nc2c(N3CCN(CCn4ccnc4)CC3)nc(C)nc21 | i
COc1cc(NC(=O)c2nc3ccccc3nc2C)cc(OC)c1OC | -13%
CN(C)S(=O)(=O)c1ccc(C(=O)Nc2ccc(-n3nncc3-c3ccccc3)cc2)cc1 | -16%
CCOc1ccc(-n2ccnc2SCC(=O)Nc2nc3ccc(C)cc3s2)cc1 | -12%
Cc1cc(C)nc(NC(=S)N2CCN(c3ncccn3)CC2)c1 | -1%
CCCOc1ccc(C(=O)N(Cc2ccc(Cl)cc2)Cc2ccco2)cc1 | -14%
OCc1cc(CC2(NCc3ccccc3O)COC2)no1 | -1%[39.2 µM]
CS(=O)(=O)CC[C@@H](C(=O)NCCc1ccccc1)N1Cc2ccccc2C1=O | -13%
O=C1[C@H]2CN(Cc3cccc(Cl)c3F)C[C@H]2C(=O)N1Cc1ccc2c(c1)OCO2 | 1%
O=C(Nc1ncc(Cc2ccc(C(F)(F)F)cc2)s1)c1cnc(-c2ccccc2)s1 | i

Other results follow:
structure | nsP2pro primary
O=C(C1CC(=O)N(C2CC2)C1)N1CCC(Oc2cccnc2)CC1 (configuration not stated) | i
O=C1NCCOCCN(C(=O)Cc2cccc(F)c2)[C@H]2CCC[C@@H]12 | -1%
CC(=O)N1CCCc2cc(S(=O)(=O)N3CCCC(C(=O)NCc4ccccc4Cl)C3)ccc21 (configuration not stated) | -1%
COc1cccc(OC)c1-c1cc(C(=O)N[C@@H](CC(C)C)C(=O)O)nn1-c1ccnc2cc(Cl)ccc12 | -14%
COc1ccc(C(=O)N(Cc2ccccc2)Cc2ccccc2)c(O)c1 | -2%
Cc1cc(C(C)(C)C)cc(C)c1CC1=NCCN1 | 3%
O=C(Nc1nc(Nc2cc(F)cc(F)c2)nc(NC2CCCC2)n1)OCc1ccccc1 | -5%
CCc1cccc(C)c1NC(=O)CCCN1C(=O)C(c2ccccc2)Oc2cccnc21 (configuration not stated) | 1%
N[C@@H](CC(=O)N1CCn2c(nnc2C(F)(F)F)C1)Cc1cc(F)c(F)cc1F | -3%&-3%&1%
COc1ccc(NC(=O)C(OC(=O)CNC(=O)c2ccccc2)c2ccccc2)c(C)c1 (configuration not stated) | -4%
O=C(NCCS(=O)(=O)N1CCN(c2ccccc2F)CC1)c1cc(=O)c2ccccc2o1 | -16%
Cc1cc2nc3n(c(=O)c2n1CC(=O)NC1CCc2ccccc21)CCCCC3 (configuration not stated) | 0%
Cc1ccc(Cn2ncc3c4sc(C)cc4n(C)c3c2=O)c(C)c1 | i
O=C(CCn1cncn1)N1CCC(c2nccn2Cc2cccnc2)CC1 | 4%
O=C(Nc1ccc2nc3n(c(=O)c2c1)CCCCC3)c1cccc(C(F)(F)F)c1 | -9%

Continued:
structure | nsP2pro primary
C#CCOc1ccc(C(C)=O)cc1-c1nnc2n1N=C(c1ccc(OC)c(OC)c1)CS2 | i
C[C@@]12CCC(=O)C[C@@H]1C[C@H](OC(=O)Nc1ccccc1)CC2 | -2%
C#CCNC(=O)C1CCc2nnc(CNC(=O)c3cccnc3)n21 (configuration not stated) | -19%
CC(=O)O[C@H]1C[C@]2(O)[C@@H]3CC[C@@H]4C[C@@H](O)CC[C@]4(C)[C@H]3CC[C@]2(C)[C@H]1c1ccc(=O)oc1 | 5%
CN(C)CCNC(=O)Cn1ccc2cc(S(=O)(=O)N3CCCCCC3)ccc21 | -11%
Cc1ccccc1CSc1nc2cccnc2n1Cc1ccc(C(=O)NCCc2cccs2)cc1 | 9%
CC1(C)C(C(=O)N2C[C@@H](C(=O)O)C[C@@H](C(=O)NCc3ccncc3)C2)C1(C)C | -6%
Cn1c(CN2CCCCC2)nc2cc(NC(=O)c3ccc(Cl)cc3)ccc21 | 32%[activator]
Cc1ccc(NC(=O)Cn2cnc3sc(C)c(S(=O)(=O)N4CCN(c5ncccn5)CC4)c3c2=O)cc1F | 0%
CCOC(=O)c1ccc(Nc2nc(C)cc(C)n2)cc1 | -13%
Nc1ccc2c(=O)n3nc(Nc4ccc5c(c4)CCC5)sc3nc2c1 | -18%
